From PubChem
hNpr1 antagonist = blocks ANP-stimulated signaling of human Npr1 receptor | P16066 | HEK293 hNpr1 GloSensor cGMP, ANP-stimulated luminescence | Potency, µM (top dose mostly 46.3 µM), for inactives: at the top dose activity change, negative = inhibition, most hits filed as inhibitors | 76,000 tested, 1.6% active; active = well fitted inhibition curve with a large enough effect; inconclusive = small, poorly fitted or top-dose-only effect; inactive = no such curve, though single readings can be large or run the other way;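 further: nearly all actives have a fitted effect of over 60% in size; nearly all hits also lower the signal before the agonist is added; a reference antagonist and vehicle were the controls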
Target sequence (P16066 whole entry, looked up): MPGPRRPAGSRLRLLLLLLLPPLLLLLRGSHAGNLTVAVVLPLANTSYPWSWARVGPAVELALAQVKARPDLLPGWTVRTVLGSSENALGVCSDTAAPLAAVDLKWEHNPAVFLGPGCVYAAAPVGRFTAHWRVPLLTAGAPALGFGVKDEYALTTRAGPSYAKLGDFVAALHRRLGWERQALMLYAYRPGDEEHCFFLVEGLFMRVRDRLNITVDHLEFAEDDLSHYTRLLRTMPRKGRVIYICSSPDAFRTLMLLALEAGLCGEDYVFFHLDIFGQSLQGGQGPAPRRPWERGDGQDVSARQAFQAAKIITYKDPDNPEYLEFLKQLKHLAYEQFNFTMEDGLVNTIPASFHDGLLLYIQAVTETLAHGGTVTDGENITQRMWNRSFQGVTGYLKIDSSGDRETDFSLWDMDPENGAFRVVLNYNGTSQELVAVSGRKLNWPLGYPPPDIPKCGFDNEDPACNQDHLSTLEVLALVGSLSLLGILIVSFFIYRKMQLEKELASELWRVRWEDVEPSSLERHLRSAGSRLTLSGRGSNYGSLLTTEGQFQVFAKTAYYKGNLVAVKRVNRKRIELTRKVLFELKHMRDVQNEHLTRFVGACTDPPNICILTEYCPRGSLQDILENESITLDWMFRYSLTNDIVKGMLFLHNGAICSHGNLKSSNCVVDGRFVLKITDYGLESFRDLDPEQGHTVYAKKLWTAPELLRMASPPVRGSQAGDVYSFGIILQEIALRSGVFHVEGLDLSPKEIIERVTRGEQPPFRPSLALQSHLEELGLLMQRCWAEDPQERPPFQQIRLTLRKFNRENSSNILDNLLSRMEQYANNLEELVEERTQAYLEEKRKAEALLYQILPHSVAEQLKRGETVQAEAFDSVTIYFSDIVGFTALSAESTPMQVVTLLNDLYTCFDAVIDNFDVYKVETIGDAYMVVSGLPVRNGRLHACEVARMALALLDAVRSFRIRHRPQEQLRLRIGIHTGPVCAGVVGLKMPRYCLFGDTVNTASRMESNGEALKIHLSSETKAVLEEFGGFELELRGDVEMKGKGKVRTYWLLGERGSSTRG
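Compound pre-incubated 30 min at room temperature on GloSensor-loaded HEK293 cells stably carrying hNpr1 and the pGS-40F cGMP biosensor. Stimulation uses hNppA at 0.1 nM final; luminescence is taken at baseline and 20 min post-agonist.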
* hit, by the source's call; ? = inconclusive; [ ] = dose if it differs, or a comment. On the % scale 0 is the no-effect control and ±100 the full control effect; potency means the concentration at half of the fitted maximal effect. The list is partial. The share of hits here may be higher or lower than overall.

hNpr1 antagonist	SMILES
-3%	Cc1sc2ccn(CC(C)C)c(=O)c2c1C(=O)N1CCCCC1
-1%[70.6 µM]	Cc1cc2c(-c3ccc(CO)cc3)nc(-c3c(C)noc3C)cc2[nH]1
?	CCOc1ccc(-c2nc(C3CC(=O)N(c4ccc(F)cc4)C3)no2)cc1 (configuration not stated)
-3%	COC(=O)CCC(=O)N1CCOC(Cc2cccc(C(F)(F)F)c2)C1 (configuration not stated)
0%	COc1ccc(OC)c(NC(=O)CC2CCCN(c3cnn(C)c(=O)c3)C2)c1 (configuration not stated)
1%	O=C(NCCc1cnc[nH]1)[C@@H]1C[C@H]2C(=O)NCCCCCCN(S(=O)(=O)c3ccccc3)[C@H]2C1
-8%	CC(C)CN1C(=O)c2cccn2CC1CNC(=O)CCc1nc2ccccc2s1 (configuration not stated)
6%	N#Cc1ccccc1CN1CCNc2nc(CN3CCOCC3)n(Cc3ccccc3)c2C1=O
2%	COCCc1noc(-c2ccc(NC(C)c3ncccc3C)nc2)n1 (configuration not stated)
0%[70.6 µM]	Cc1ccccc1N(C)C1CN(Cc2ccc(C#N)cc2)C1
0%	CCCCN(CC)C(=O)c1nnn2cc(-c3ccc(Cl)cc3)[nH]c(=O)c12
5%	CC1(C)C[C@H](NCc2ccc(CO)o2)[C@@]2(CCC(=O)NCCN3CCOCC3)CC[C@](C)(O)C[C@@H]12
-3%	COCCOC1CCOC2(CCN(C(=O)c3ccccc3)CC2)C1 (configuration not stated)
-9%[70.6 µM]	Cc1nn2c(c1-c1ccccc1-c1ccccc1)N(C(=O)c1cccnc1)CCC2
?	CCn1cc(CN2CCN(C(=O)c3sccc3C)CC2)ccc1=O
-1%[70.6 µM]	COCCN1Cc2ccc(NCC(C)C)nc2C(C)(C(=O)NC2CCC2)C1 (configuration not stated)
4%	CN1C(=O)C(CC(=O)N2CCC(CN)CC2)(Cc2ccccc2)c2ccccc21 (configuration not stated)
2%	CCc1nc(-c2c3n(c(=O)n(Cc4cccc(C(F)(F)F)c4)c2=O)CCCC3)no1
4%	COc1cccc(NC(=O)N2CCC[C@@H](O)[C@H](NC(=O)c3ccc(OCCN4CCCC4)cc3)C2)c1
0%	C[C@]1(CO)[C@H]2Cc3sc(NC(=O)C4CCC4)nc3[C@@H](CC(=O)NC3CC3)[C@]2(C)CC[C@H]1O
-3%	COCC1CN(C(=O)c2nccc3ccccc23)CC12CCNCC2 (configuration not stated)
16µM*	CCc1noc(-c2cn(C3CCN(C(=O)c4ccc(C(C)(C)C)cc4)C3)nn2)n1 (configuration not stated)
?	Cc1cc(Cl)ccc1S(=O)(=O)N1CCC(Oc2ccc(C(N)=O)cn2)CC1
-2%	COc1ccc(NC(=O)N[C@H]2[C@H](O)[C@@H](N3CCC(Cc4ccccc4)CC3)[C@@H]3OC[C@H]2O3)cc1
0%[70.6 µM]	O=C(O)c1ccccc1C(=O)N1CC[C@H]2COC(=O)N2c2cc(F)ccc2C1
-6%	COCCN1CCCN(C(=O)c2cc(C)cc(C)c2)c2ccccc21
2%	CC(=O)N1C[C@@H]2CCCN3CCC[C@@H]([C@H]23)[C@H]1CCCC(=O)N1CCN(C2CCN(C)CC2)CC1
1%[70.6 µM]	O=C1[C@@H]2C[C@@H](O)CN2C2(CN(Cc3ccc(F)cc3)C2)C(=O)N1Cc1ccccc1
0%	CCOC(=O)Cc1csc(NC(=O)CC[C@H]2NC(=O)c3ccccc3NC2=O)n1
1%	Cc1cc(C(=O)N2CCCC(c3nnc(Cn4ccnc4)n3C)C2)c(C)o1 (configuration not stated)
2.2µM*	O=C(Nc1ccc(Cl)cc1Cl)c1cc2cccnn2n1
5%[70.6 µM]	C[C@@H](NC(=O)Nc1ccccc1)c1onc(-c2ccc(Cl)cc2)c1C(=O)O
?	O=C(COc1ccc(Cl)cc1Cl)N1CCCCC1c1ccccn1 (configuration not stated)
-2%	O=C(NC1CCc2nn(CC3CC3)c(=O)n2CC1)c1n[nH]c2ccccc12 (configuration not stated)
5%[70.6 µM]	O=C(NC[C@H]1OC[C@@H](NC2CCOCC2)[C@@H]1O)N1CCOCC1
2%	CCN(CC)C(=O)N1C[C@@H](Oc2cccnc2)C[C@@H]1C(=O)N1CCOCC1
3%	CC(=O)N1CCCC(c2nc(-c3cccnc3)no2)CCNC(=O)CC1 (configuration not stated)
5%	Cc1noc(-c2cn(C3CCN(C(=O)c4ccc5c(c4)OCO5)CC3)nn2)n1
3%	Cc1cc(C)n(CCC(=O)N[C@@H]2CN(c3ncccn3)C[C@H]2CO)n1
1%[70.6 µM]	CNC(=O)CCn1ncc2cc(OCc3ccccc3-c3cnn(C)c3)ccc21
-6%[70.6 µM]	O=C(Nc1nccs1)[C@@H]1C[C@@H](c2ccc(F)cc2)N([S+](=O)([O-])c2ccccc2)C1
-1%[70.6 µM]	COc1ccc(-c2noc([C@@H]3C[C@H](NC(=O)COCC(=O)O)CN3C)n2)cc1
-8%	O=C(NCc1ccccc1)N[C@H]1CO[C@H]2[C@@H]1OC[C@H]2OC(=O)Nc1cccc(C(F)(F)F)c1
1%	c1cn(-c2ccc(Oc3nn[nH]n3)cc2)c(-c2cc3n(n2)CCCNC3)n1
4%[70.6 µM]	O=C([C@@H]1C[C@@H](O)[C@H](O)[C@@H]2NC(=S)N(c3ccc(Cl)cc3)[C@@H]21)N1CCCCC1
3%	O=C(C1CCC1)N1CCCC(Cc2nncn2CC2CC2)C1 (configuration not stated)
0%	CN(C)c1cc(N2CCCC(NS(C)(=O)=O)C2)ncn1 (configuration not stated)
4µM*	CCc1ccc(C(=O)N2CCC(Cc3nc(-c4cccc(OC)c4)no3)CC2)cc1
-5%	O=C1CC(c2noc(-c3cccc(F)c3)n2)CN1c1ccc(Cl)cc1 (configuration not stated)
1%[70.6 µM]	Cc1noc2c(NC(C)C)cc(-c3ccccc3)nc12

Remaining list, next part:
hNpr1 antagonist	SMILES
1%	Cc1nc(CC2CCN(C(=O)c3ccccc3)CC2)n[nH]1
9%	CCC(=O)N(C1CCOCC1)C1CCN(Cc2ccc(OC)cc2OC)CC1
-21%	Cc1ccc(C(=O)NCCn2ccn3nc(-c4ccc(F)cc4)cc3c2=O)cc1F
5%[70.6 µM]	CC(=O)N1CCn2c(nn(-c3ccncc3)c2=O)C1
-1%	COCCNC(=O)CCc1ccc2c(c1)CN(C(=O)NC(C)C)CCO2
-26%	Fc1ccccc1-c1ccc(CNCc2ccco2)o1
-2%	CC(=O)N1CCC(N2CCOc3ccc(C(=O)NCc4ccccc4F)cc3C2)CC1
1%	CC(=O)N1C[C@@H](Oc2ccccc2)C[C@@H]1C(=O)N1CCOCC1
3%	O=C(O)CCCC(=O)N[C@H]1CO[C@H]2[C@@H]1OC[C@@H]2Nc1nccc(-c2ccc3c(c2)OCO3)n1
1%	Cc1ccccc1NC(=O)Cn1c(=O)n(-c2ccccc2)c(=O)c2c1cc(C)n2C
1%	CCn1cc(CN2CCCC23CCN(c2cc(C)nc4ccccc24)CC3)c(C)n1
18µM*	COc1cccc(-c2cc(C3CCN(C(=O)c4ccccc4Br)CC3)[nH]n2)c1
-3%	CCC(C)NC(=O)Cc1csc2nc(C)c(-c3cc(C)n(-c4cc(Cl)ccc4C)n3)c(=O)n12 (configuration not stated)
2%	COC1CCCN(c2ncc(C(C)(C)C(=O)O)c(N3CCOCC3)n2)C1 (configuration not stated)
0%	c1ccc([C@@H]2CN(Cc3ccncc3)C[C@H]2COc2ccncc2)nc1
-2%	COC1CCN(CC2CCCCCN2C(=O)NCc2ccc(F)cc2)CC1 (configuration not stated)
1%	COCc1cc(CNC(=O)CC2C(=O)NCCN2Cc2ccccc2)[nH]n1 (configuration not stated)
3%	CCc1ccc(CN2CCC([C@@H]3CNC[C@H]3CO)CC2)cc1
2%[70.6 µM]	C#CCN(C)C(=O)c1c(-c2ccc(OC)cc2)noc1[C@H](C)O
5%	CC1(C)CC2CC(C)(CN2C(=O)CCC2(Cc3ccco3)CCC(=O)N2)C1 (configuration not stated)
-21%	O=c1[nH]nc2n1CCC(NS(=O)(=O)c1ccc3c(c1)CCC3)CC2 (configuration not stated)
2%	O=C(c1ccccc1OCC1CCCNC1)N1CCCCC1 (configuration not stated)
18µM*	COc1ccc(CCNC(=O)CC(c2cccc(F)c2)c2cn(C)c3ccccc23)cc1OC (configuration not stated)
-5%	Cc1cccc(CN2C[C@]34C=C[C@H](O3)C(C(=O)N(C)Cc3nnc(C)o3)C4C2=O)c1 (some centres not stated)
1%	Cc1ccccc1C(=O)Nc1ccnn1C1CCN(C(=O)C2(N)CCC2)CC1
21%[70.6 µM]	c1ccc(-c2nc3ncccc3[nH]2)nc1
0%	CCCn1ccc2sc(C)c(C(=O)NCc3cc(F)ccc3F)c2c1=O
-2%	CN(C)c1nc2c(c(=O)[nH]1)CCN(Cc1cccc(Br)c1)CC2
-3%	COc1ccc(NC(=O)O[C@@H]2C=C[C@H](c3c(C)nn(-c4ccc(C)c(Cl)c4)c3C)C2)cc1
-1%	O=C(CN1CC2CC(C1)[C@H]1CCCC(=O)N1C2)NCc1ccc(F)cc1 (some centres not stated)
-16%	COc1ccc(-c2noc(-c3nc(-c4ccc5c(c4)OCO5)no3)n2)c(OC)c1
0%	CCOC1CCOC2(CCN(C(=O)c3ccco3)CC2)C1 (configuration not stated)
2%	Cc1nnc2ccc(N3CCCC3)nn12
6%	COCCC(=O)NC1CCN(c2cnn(Cc3ccccc3)c(=O)c2)CC1
0%	O=S(=O)(c1cccc(F)c1)N1CCC(n2cnnc2C2CC2)CC1
2%	Cc1noc([C@@H]2CN(C3CCN(Cc4ccccc4)CC3)C[C@H]2CO)n1
4%	CCc1noc(C)c1C(=O)N[C@H]1CCOC[C@H]1C1CCOCC1
4%	CN1c2cc(C(=O)NC3CCCCCC3)ccc2C(=O)N2CCCCC21 (configuration not stated)
-1%	CCOc1ccccc1CNC(=O)c1cc(NC(C)=O)cc2nc(C)ccc12
4%	C[C@@H]1CN(C2CCN(C(=O)c3cc[nH]c3)CC2)C[C@H](C)O1
0%[70.6 µM]	Cc1ccc(CNC2(Cc3cc(-c4ccccn4)on3)COC2)o1
-5%	NCCCN1C(=O)CC[C@H]2CN(C(=O)c3ccc4c(c3)CCC4)CC[C@H]21
3%	CN(CC1CCOC1)S(=O)(=O)c1ccc(F)c(F)c1 (configuration not stated)
-7%	CC1(C)[C@H]2CC=C(CN3CCC(CCC(=O)N4CCN(c5ccccc5)CC4)CC3)[C@@H]1C2
5%	O=C1CCC(=O)N1CC(=O)N1CCCCCC1c1nnc(-c2ccccc2)o1 (configuration not stated)
-1%[70.6 µM]	Cc1ccc(CN2CCC3(Cc4ccccc4NC3=O)C2)cc1 (configuration not stated)
-3%[70.6 µM]	NC(=O)[C@@H]1CCCN1CC[C@H]1CN(C(=O)c2ccnc(Cl)c2)CC[C@H]1CC(=O)O
5%	Cc1nc(CCNS(=O)(=O)c2cccnc2)no1
0%	CCc1nc(-c2c3n(c(=O)n(Cc4ccccc4C)c2=O)CCCCC3)no1
-3%	Cc1cc(C)cc(NC(=O)C2CCN(C(=O)c3ncn4c3COC(c3ccccc3)C4)CC2)c1 (configuration not stated)

Continuation:
hNpr1 antagonist	SMILES
16%	COCCn1ncc(N2CCC(C(=O)NCc3ccc(C)o3)C2)cc1=O (configuration not stated)
3%	Cn1cnc(C(=O)N2CCCCCCNC(=O)[C@@H]3CCCC[C@@H]32)c1
1%[70.6 µM]	O=C(Nc1ccccc1)c1cnc2n1CCN(CC1CCCC1)CC2
-2%	Cc1ccc(-c2nc(C(=O)NC(C)c3ccccc3)no2)cc1 (configuration not stated)
-1%	Cn1c(C(=O)N2CCC3(CCNC(=O)CC3)CC2)cc2c(Cl)cccc21
3%[70.6 µM]	COc1cccc(-c2cccc(CCOc3cnc4c(ccn4CC(=O)O)c3)c2)c1
-1%	CCC(NC(=O)c1ccc(C)c(NC(=O)C2CC2)c1)c1ncnn1CC (configuration not stated)
-5%	Cn1ncc(CN2CCc3[nH]cnc3C2c2cccc(C#N)c2)c1C1CC1 (configuration not stated)
-21%	CN(C)c1cccc(C(=O)NC2CCN(c3cc(-c4cccs4)[nH]n3)C2)c1 (configuration not stated)
1%	COc1cccc(CC(=O)N2CCC3(CC2)N=C(c2ccccc2)NO3)c1
4%	Cc1cnc(C(=O)N2C[C@@H](Oc3cccnc3)C[C@H]2C(=O)N2CCOCC2)cn1
4%	Cc1noc(-c2cccc(F)c2)c1C(=O)NCCc1ccc(F)cc1
?	COCc1nc(-c2ccc(OC3CN(C(=O)c4cccc(OC)c4)C3)cc2)no1
1%	O=C(Nc1ccc2c(c1)OCCO2)N1CCC(c2nc(C3CCOCC3)no2)CC1

Arranged by SMILES length (smallest number first): six of the compounds above.
hNpr1 antagonist	SMILES
1%[70.6 µM]	O=C(Nc1ccccc1)c1cnc2n1CCN(CC1CCCC1)CC2
16%	COCCn1ncc(N2CCC(C(=O)NCc3ccc(C)o3)C2)cc1=O (configuration not stated)
-5%	Cn1ncc(CN2CCc3[nH]cnc3C2c2cccc(C#N)c2)c1C1CC1 (configuration not stated)
-1%	Cn1c(C(=O)N2CCC3(CCNC(=O)CC3)CC2)cc2c(Cl)cccc21
3%[70.6 µM]	COc1cccc(-c2cccc(CCOc3cnc4c(ccn4CC(=O)O)c3)c2)c1
1%	O=C(Nc1ccc2c(c1)OCCO2)N1CCC(c2nc(C3CCOCC3)no2)CC1

In the list so far, two have bromine:
hNpr1 antagonist	SMILES
18µM*	COc1cccc(-c2cc(C3CCN(C(=O)c4ccccc4Br)CC3)[nH]n2)c1
-2%	CN(C)c1nc2c(c(=O)[nH]1)CCN(Cc1cccc(Br)c1)CC2
